# PINK1 expr mod: changes PINK1 expression | PINK1 immunofluorescence, high-content cytometry, 24 h | Potency, µM (titrated, usually from 76.6 µM), without a hit: at the highest dose activation (PINK1 increase), actives largely listed as activators | hit rate 0.2% among 410,000; active = well fitted activation curve with a large enough effect; inconclusive = small, poorly fitted or top-dose-only effect; inactive = flat fitted curve, though single readings scatter; cell line not stated here;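 note: potency is the fitted concentration of half-maximal effect; % of control where 0% means no effect; nearly all actives have a fitted effect of over 65% in size; a mitochondrial uncoupler was the plate control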
#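 Compound titrations (5 concentrations, 24 h) on a stable cell line; DMSO and CCCP controls. Endpoint: fixed-cell PINK1 immunofluorescence with mitochondrial, cell and nuclear markers, scanned by microplate cytometer.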
# D2 PAM: potentiates the human D2 dopamine receptor allosterically; hit rate 0.23% among 360,000; DiscoveRx D2 beta-arrestin cells, luminescence, 90 min; 100% = 57 uM dopamine signal; P14416; potentiation, % (test concentration not listed); active = potentiation of 50% or more; inconclusive = 30% to 50%; inactive = 30% or less;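 note: compound concentration not given in the record; tested on top of an EC20 dose of dopamine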
# Target sequence (P14416 whole entry, looked up): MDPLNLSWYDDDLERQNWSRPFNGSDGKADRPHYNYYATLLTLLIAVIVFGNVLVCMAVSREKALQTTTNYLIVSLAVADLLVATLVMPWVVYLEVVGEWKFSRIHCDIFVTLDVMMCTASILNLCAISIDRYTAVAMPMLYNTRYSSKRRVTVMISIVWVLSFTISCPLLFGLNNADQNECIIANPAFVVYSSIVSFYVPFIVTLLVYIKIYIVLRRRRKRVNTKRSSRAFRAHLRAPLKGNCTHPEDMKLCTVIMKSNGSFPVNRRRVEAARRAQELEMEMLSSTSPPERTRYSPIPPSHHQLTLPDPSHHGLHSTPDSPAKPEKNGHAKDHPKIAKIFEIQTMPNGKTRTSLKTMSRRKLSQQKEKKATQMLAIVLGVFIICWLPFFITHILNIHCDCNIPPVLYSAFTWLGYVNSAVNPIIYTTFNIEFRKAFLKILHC
#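 PathHunter beta-arrestin assay in DiscoveRx D2 cells. Compounds were added with an EC20 of dopamine (50 nM final) for 90 min at 37 deg C. Luminescence was read 1 h after detection reagent, with 57 uM dopamine as the EC100 control.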
# D2 ag: activates the human D2 dopamine receptor. hit rate 0.084% among 360,000. AID 624465. DiscoveRx PathHunter D2 beta-arrestin, luminescence, 90 min; 100% = 57 uM dopamine signal. activation, % (test concentration not listed). P14416; in the data active = activation above about 40%; inconclusive = about 15% to 40%; inactive = below about 15%; note: compound concentration not given in the record; the text of the record calls up to 30% inactive
#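 Agonist mode: compounds alone added to overnight-plated D2 PathHunter cells for 90 min at 37 C, with 57 uM final dopamine (EC100) defining full response. Beta-arrestin recruitment detected by chemiluminescent reagent, read after 1 h at ambient temperature.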
# Six1-Eya2 inh: inhibitors of human Six1/Eya2 interaction. activity change, % (no concentration beside the values). hit rate 0.56% among 360,000. AlphaScreen GST-Six1/His-Eya2 binding, biochemical; active compounds read low; control for the full effect not named in the record; in the data active = activity change below about -65%; inconclusive = about -30% to -65%; inactive = above about -30%; note: % is set by controls: 0 for no effect and ±100 for the full control effect
#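 Compounds are tested against tagged Six1 and Eya2 proteins bridged by glutathione donor and nickel acceptor beads; after a one-hour incubation at 37 °C without light, AlphaScreen emission is recorded.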
# TRPML1 ag: human mucolipin-1 channel agonism. Q9GZU1. TRPML1-expressing cells, Ca2+ dye fluorescence, FDSS; host cell line not named in the record; reference of the full effect not given here. activation, % (no concentration beside the values). hit rate 0.12% among 410,000. AID 624414; in the data active = activation above about 50%; inconclusive = about 30% to 50%; inactive = below about 30%; note: 0% is about no effect; the text of the record puts the active cut at 80%
# Target sequence (Q9GZU1 whole entry, looked up): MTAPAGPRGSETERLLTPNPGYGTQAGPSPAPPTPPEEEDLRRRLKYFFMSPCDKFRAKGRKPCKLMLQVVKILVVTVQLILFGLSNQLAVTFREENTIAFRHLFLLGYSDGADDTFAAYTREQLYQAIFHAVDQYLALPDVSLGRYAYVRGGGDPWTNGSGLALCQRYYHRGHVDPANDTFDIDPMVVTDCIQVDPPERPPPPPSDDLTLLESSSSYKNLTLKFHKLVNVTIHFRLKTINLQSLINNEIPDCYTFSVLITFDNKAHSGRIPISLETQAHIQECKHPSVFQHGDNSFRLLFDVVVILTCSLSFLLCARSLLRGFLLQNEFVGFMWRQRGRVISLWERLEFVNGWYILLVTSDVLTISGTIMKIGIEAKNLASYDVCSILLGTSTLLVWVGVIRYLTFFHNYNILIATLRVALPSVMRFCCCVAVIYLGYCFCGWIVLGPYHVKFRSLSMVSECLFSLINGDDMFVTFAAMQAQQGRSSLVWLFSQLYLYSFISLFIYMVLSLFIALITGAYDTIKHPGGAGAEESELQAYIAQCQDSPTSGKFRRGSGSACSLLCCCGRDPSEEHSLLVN
#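 Tet-induced TRPML1-DL cells, 1,500 per well, cultured overnight, were loaded with a no-wash Ca2+ dye for 45–90 min. Calcium fluorescence was recorded on the FDSS for 110 s after compound addition, before the EC80 agonist (4 uM 54-4) was added.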
# TRPML1 blocker: inhibitors of human TRPML1 channel; Q9GZU1; TRPML1-inducible cells, Ca2+ dye fluorescence, FDSS; active compounds read low; inhibition of EC80 agonist-evoked calcium signal; activity change, negative = inhibition, % (concentration not given with the values); hit rate 0.02% among 390,000; AID 624415; in the data active means activity change below about -50%; inconclusive means about -30% to -50%; inactive means above about -30%;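 note: stimulus is agonist 54-4 at its EC80 concentration; % is set by controls: 0 for no effect and ±100 for the full control effect; the text of the record puts the active cut at -80%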
#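 TRPML1-DL cells, Tet-induced overnight (~16 h, 37 °C) at 1,500 cells/well, were loaded with Ca8 no-wash dye plus quencher for 45-90 min at room temperature. Compounds were pinned during FDSS kinetic reading; agonist 54-4 at EC80 (4 uM final) then added.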
# Starred values were filed as active, the others as inactive; ? = inconclusive; . = not tested or not shown; & = joins results of further samples; [ ] = dose if it differs, or a comment.
SMILES,PINK1 expr mod,D2 PAM,D2 ag,Six1-Eya2 inh,TRPML1 ag,TRPML1 blocker
O=[N+]([O-])c1cc(-c2ncccn2)c([N+](=O)[O-])s1,0.3%,-10,-5.4,-12,0.0,16
COC(=O)c1ccccc1NC(=S)NC(=O)CC(C)C,1.0%[38.3 µM],-12,-4.0,-1,-0.3,9
CSc1nccc(-c2nn(-c3ccc(C)cc3)ccc2=O)n1,4.5%,-3,-2.1,?,-0.6,15
Cc1ccc(-n2c(-c3cc(C)n(C)n3)n[nH]c2=S)cc1,-0.4%,-22,-1.7,4,-0.2,-14
C=C(c1ccccc1Cl)[n+]1ccccc1,7.7%,-33,-5.7,15,-0.9,5
O=C(CNC(=O)c1ccc(Cl)c([N+](=O)[O-])c1)OC1CCCCC1=O (stereo unspecified),-1.4%,-24,-2.5,-11,0.8,-4
Cc1ccccc1NC(=O)CSc1c(C(C)C)cnc2c1c(=O)n(C)c(=O)n2C,-0.4%,.,.,.,2.0,-5
CCc1n[nH]c2c1C(=O)CC(C)(C)C2,6.5%,-29,-0.7,-6,-0.2,-13
C=CCOC(=O)CCC(=O)Nc1cccc2ccccc12,-0.1%,-15,-2.2,-7,0.4,-7
CN(N)C(=S)Nc1ccc(F)cc1,-1.0%,-8,8.4,4,-0.1,-6
CCOC(=O)Cc1cc(=O)[nH]c(/N=C(/NC(=O)c2ccccc2)Nc2ccccc2C(F)(F)F)n1,-0.6%[38.3 µM],-6,-1.4,-2,0.3,3
O=C(N/N=C/c1cc2c(cc1Br)OCO2)C1COc2ccccc2O1 (stereo unspecified),4.3%,-11,-5.6,-10,1.1,52
Cn1cc(S(=O)(=O)N2CCOCC2)cc1C(=O)O,2.7%,-4,0.2,10,1.1,-2
CCCC(C)NC(=O)COC(=O)c1ccccc1SCC(=O)NC(C)CCC (stereo unspecified),-0.6%,-1,1.0,4,0.8,10
O=C(N/N=C\c1cc(Br)c(Br)o1)c1cncc(Br)c1,22%,-15,-1.6,-14,2.3,22

# Reformatted bar-delimited: entries from further up.
Compound | PINK1 expr mod | D2 PAM | D2 ag | Six1-Eya2 inh | TRPML1 ag | TRPML1 blocker
CSc1nccc(-c2nn(-c3ccc(C)cc3)ccc2=O)n1 | 4.5% | -3 | -2.1 | ? | -0.6 | 15
Cc1ccc(-n2c(-c3cc(C)n(C)n3)n[nH]c2=S)cc1 | -0.4% | -22 | -1.7 | 4 | -0.2 | -14
C=C(c1ccccc1Cl)[n+]1ccccc1 | 7.7% | -33 | -5.7 | 15 | -0.9 | 5

# (further entries)
SMILES,PINK1 expr mod,D2 PAM,D2 ag,Six1-Eya2 inh,TRPML1 ag,TRPML1 blocker
CCOC(=O)/C=C1\SCC(=O)N1CCOc1cccc(Br)c1,0.6%,?,-6.0,10,0.9,-10
CC(C)Cn1c(N)c(C(=O)COC(=O)c2ccc(Br)cc2)c(=O)n(C)c1=O,11%,0,3.7,-6,0.4,37
C=CCN(CC=C)CC(=O)Nc1ccc(S(N)(=O)=O)cc1,-2.8%,-5,1.8,8,-0.4,-11
COc1ccc(CNCc2cccn2C)cc1,-1.6%,-5,-6.0,-9,0.6,20
CN(Cc1ccccc1)C(=O)c1cnc2n(c1=O)CCS2,5.9%[38.3 µM],2,0.2,3,-0.4,8
O=C(CNCc1ccc(F)cc1)Nc1ccccc1[N+](=O)[O-],-0.4%,-14,-0.4,-23,-1.2,-5
CCC(=O)N1CCC1(C)C(=O)Nc1ccc2c(c1)OCO2 (stereo unspecified),0.4%,-3,-4.5,9,0.0,.
CCOC(=O)CNC(=O)CSc1nc(C(C)C)nc2c1cnn2-c1ccccc1,5.0%,-6,-2.6,0,-1.2,12
Clc1cccc(-n2ncc3c(N4CCCCC4)ncnc32)c1,2.3%,.,.,.,1.0,59
CC1CCN(S(=O)(=O)c2ccc3c(c2)N(CC(=O)NCCN(C)C)C(=O)CO3)CC1,-0.1%,.,.,.,1.6,1
CC(C)CNS(=O)(=O)c1ccc(S(=O)(=O)N2CCN(C3CCCC3)CC2)cc1,2.3%,-8,-3.1,14,-1.1,15
CC/C(C)=C1\SC(N2CCOCC2)=NC1=O,-0.2%,-10,0.6,6,1.2,20
COCCNC(=O)CSc1nc(-c2ccccc2)cs1,3.9%[38.3 µM],-5,-1.4,1,2.2,2
COc1ccc(CC(=O)N2CCC3(CC2)NCCc2[nH]cnc23)cc1,-0.3%,-10,0.0,0,-0.3,0
O=C(COc1ccccc1C(=O)N/N=C\c1ccc(O)c(O)c1)N/N=C/c1ccc(O)c(O)c1,1.6%,16,5.1,-79*,1.4,25
Cc1cc(C(F)F)n2nc(C(=O)Nc3ccc(F)cc3F)nc2n1,1.9%,1,-3.1,0,-0.3,3
Cc1ccc(-c2nc3ccccc3o2)cc1NC(=O)Cc1cccs1,-0.5%,11,-3.7,-2,-0.4,0
Clc1cnc(N/N=C/c2cccs2)c(Cl)c1,3.6%,-8,-7.4,13,0.2,0
O=C(N/N=C/c1ccc(OCc2ccccc2)cc1)c1cccs1,?,1,0.2,1,2.4,12
O=C(COC(=O)c1n[nH]c(=O)c2ccccc12)NCc1ccccc1,0.0%,14,0.9,10,-1.7,14
O=C(Nc1ccccc1)n1cc(-c2ccccn2)c(N2CCOCC2)n1,1.8%,-6,-7.0,11,0.6,13
Cc1ccc(C2C(C#N)=C(N)OC3=C2C(=O)CCC3)s1 (stereo unspecified),2.2%,-4,0.8,7,-0.8,-13
CC12CN3CC(C)(CN(C1)C3c1ccc3c(c1)OCO3)C2=O (stereo unspecified),-1.2%,-8,-2.9,11,-0.3,-2
O=C(O)C1CCC2CCCC21 (stereo unspecified),1.8%,-7,2.9,11,-0.5,.
O=C(NC1(C(F)(F)F)NC(=O)N(Cc2ccco2)C1=O)c1cccs1 (stereo unspecified),-1.8%,-3,-0.4,0,-1.1,-2
Cc1cc(S(=O)(=O)NC2CCCCC2)ccc1OCC(=O)NCc1cccnc1,?,6,-0.5,-10,0.9,1
COc1ccccc1C1CCN(Cc2ccc(Cl)cc2Cl)CC1,?,-36,2.9,4,2.0,13
COc1cccc(Nc2nc(N)c([N+](=O)[O-])c(NCc3ccco3)n2)c1,-0.2%,6,-3.0,-23,0.7,11
Cc1cccc(C)c1NC(=O)/C(C#N)=C/c1ccsc1,1.7%,-4,-0.5,3,0.9,3
O=C(Nc1ccccc1-c1nc2ccccc2s1)c1cccnc1Cl,-1.7%[38.3 µM],-3,-2.3,9,1.3,20

# Quoted at random: four records from the list
SMILES,PINK1 expr mod,D2 PAM,D2 ag,Six1-Eya2 inh,TRPML1 ag,TRPML1 blocker
Clc1cnc(N/N=C/c2cccs2)c(Cl)c1,3.6%,-8,-7.4,13,0.2,0
O=C(Nc1ccccc1)n1cc(-c2ccccn2)c(N2CCOCC2)n1,1.8%,-6,-7.0,11,0.6,13
O=C(N/N=C/c1ccc(OCc2ccccc2)cc1)c1cccs1,?,1,0.2,1,2.4,12
O=C(NC1(C(F)(F)F)NC(=O)N(Cc2ccco2)C1=O)c1cccs1 (stereo unspecified),-1.8%,-3,-0.4,0,-1.1,-2

# Following part
SMILES,PINK1 expr mod,D2 PAM,D2 ag,Six1-Eya2 inh,TRPML1 ag,TRPML1 blocker
Oc1ccc(Cl)cc1C=Nc1ccccc1Br,-1.9%,-5,-3.9,2,-0.4,14
CC(C)(C)C(=O)C(CO)(Oc1ccc(Cl)cc1)n1cncn1 (stereo unspecified),-0.7%,-7,-2.6,2,-0.6,-1
CCc1nc(NCCCN2CCOCC2)c2oc3ccccc3c2n1,0.3%,-35,-2.9,-1,-0.1,-3
COc1ccc2c(c1)c(C(=O)CN1CCCCC1)c(C)n2C,-0.1%,-28,-4.9,-8,1.1,6
CSc1ccccc1NC(=O)Cn1nc([N+](=O)[O-])c(Cl)c1C,0.3%,-8,1.0,4,0.4,-4
COc1ccc(NC2=NCC(=O)N2c2ccccc2F)c(OC)c1,0.2%,-7,-3.0,7,-0.8,4
Nc1ccccc1SCc1cn2ccccc2n1,0.4%,-21,4.4,1,-0.1,35
O=C(CN1C(=O)COc2ccccc21)NCCCN1CCCC1,1.4%,-10,-1.6,0,1.2,-4
COc1cc(-c2nn3c(C4CCCCC4)nnc3s2)cc(OC)c1OC,-2.8%,-17,-2.2,0,1.9,-14
Cc1cccc(NC(=O)C2COc3ccccc3O2)c1 (stereo unspecified),0.2%,0,3.1,4,1.8,-10
COc1ccc(NC(=O)C2(C)CCN2C(=O)Cc2ccccc2)cc1OC (stereo unspecified),0.0%,-4,1.3,4,0.7,5
C[C@H](CO)N1C[C@H](C)[C@@H](CN(C)S(=O)(=O)c2ccccc2)OCCCC[C@H](C)Oc2ccc(NC(=O)CCC(F)(F)F)cc2C1=O,1.1%,3,5.2,-4,-1.0,15
CC1Cc2ccccc2N1C(=O)CN1CCC(C(N)=O)CC1 (stereo unspecified),1.1%,-2,-4.7,13,0.1,-16
CCOc1ccc(N/C(N)=N/c2nc(CSc3nnc(C)s3)cc(=O)[nH]2)cc1,12%,-2,0.9,7,-0.3,-12
O=C(Cn1cnc2cc([N+](=O)[O-])ccc2c1=O)N(Cc1ccccc1)C1CCS(=O)(=O)C1 (stereo unspecified),1.7%,-29,-4.5,-23,-0.4,-13
CCC(C)NC(=O)c1ccc(CNS(=O)(=O)c2ccc3c(c2)C(C)(C)C(=O)N3C)cc1 (stereo unspecified),1.1%&-1.3%,-5,-2.7,-2,-0.5&1.4,-4&8
CCCOc1ccccc1/C=C(\C#N)C(=O)Nc1cccnc1,4.5%,-6,-1.8,11,-0.6,-1
CC(=O)Nc1c(C(N)=O)oc2ccc(Cl)cc12,-1.1%,-8,-3.6,-7,1.4,-12
CCOc1ncccc1C(=O)OCC(=O)N(CC(C)C)C1CCS(=O)(=O)C1 (stereo unspecified),1.4%,-1,-1.8,5,0.8,10
CCN(c1ccccc1C(=O)O)S(=O)(=O)c1cccc2nsnc12,2.2%,1,-1.2,4,1.7,9
Cc1cccc(NC(=O)CSc2nnc(CNC(=O)c3cccc(C)c3)n2-c2ccccc2)c1,-1.2%,.,.,.,1.5,9
O=C(c1cccs1)N1CCCN(c2ncnc3scc(-c4ccccc4)c23)CC1,-1.6%,-5,2.9,-7,-0.2,2
CSCCNCc1c(C(=O)N2CCOCC2)nc2c(C)cccn12,3.1%,-6,-6.0,4,0.0,22
O=c1cc(O)c2ccccc2[nH]1,-1.5%,3,1.2,-3,1.5,14
COc1ccc(S(=O)(=O)N2CCCC(C(=O)NCCCn3ccnc3)C2)cc1OC (stereo unspecified),0.4%,-22,-3.8,-6,-1.3,-4
O=C(Nc1ccc(F)cc1F)c1cc(=O)n(-c2ccccc2)c(=O)[nH]1,0.9%,-8,-3.0,1,0.0,-1
CSc1ccc(/C=C(/NC(=O)c2ccco2)C(=O)N2CCCCC2)cc1,1.6%,-6,-1.2,-1,0.6,-2
CCCS(=O)(=O)NC(=O)C1(C)CCCN(C(=O)c2cc(OC)ccc2Br)C1 (stereo unspecified),1.3%,3,5.4,3,-0.6,.
COc1cccc(CN2CCC(Oc3ccc(C(=O)N4CCCCC4)cc3)CC2)c1,-0.5%,-18,-3.0,-11,-0.3,8
COC(=O)CSc1snnc1-c1ccc(F)cc1,-0.4%,-3,0.0,18,1.0,-3
COc1ccc2cc(S(=O)(=O)N3CCN(C)CC3)ccc2c1,-1.1%,-8,-1.1,-1,-1.0,-4
